# WNV protease inh – inhibitors of West Nile virus NS2B-NS3 protease; AID 577; P06935; z-score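 (tested at a level between 10 and 100 µM)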; 65,000 tested, 0.18% active; WNV NS2B-NS3 protease, fluorogenic substrate Ex360/Em465; hits give low values;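 active = z-score at -3 or under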;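 also: score is relative to mean and spread of the compound wells of a plate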
# Target sequence (P06935 1371-1501 limits assumed): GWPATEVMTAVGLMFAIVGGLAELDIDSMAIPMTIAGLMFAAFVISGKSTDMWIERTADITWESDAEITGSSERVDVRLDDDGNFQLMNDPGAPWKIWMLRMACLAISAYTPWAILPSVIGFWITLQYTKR
# Target sequence (P06935 1502-1679 limits assumed): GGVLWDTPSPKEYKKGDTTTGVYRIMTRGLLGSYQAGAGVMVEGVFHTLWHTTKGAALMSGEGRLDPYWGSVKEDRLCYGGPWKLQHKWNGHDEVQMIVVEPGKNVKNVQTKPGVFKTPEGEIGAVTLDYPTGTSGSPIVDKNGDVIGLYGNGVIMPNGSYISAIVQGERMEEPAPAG
# Hsc70 – Hsc70 inhibitors, probe displacement, primary screen, biochemical, fluorescence polarization (AID 568); 83,000 tested, under 10 active; displacement, % at 20 µM; hits with a dose series show IC50 in µM; Hsc70 fluorescence polarization, probe displacement; higher % means a stronger effect; strong numbers were not always called active;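 active = displacement above 50% without optical interference and an IC50 on retest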;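 also: ATPase domain with a fluorescein-tagged ATP probe; 0% = vehicle and 100% = excess ADP; read after one hour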
# MT1-MMP reporter – MT1-MMP gene expression reporter suppression – cell-based, luciferase reporter, luminescence (AID 618); MT1-MMP promoter luciferase reporter cells, luminescence; calls from a first round at 10 µM; hits with a dose series show EC50 in µM; 87,000 tested, 0.62% active;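 active = over half of the reporter light lost at 10 µM or EC50 under 50 µM; inactive = the rest and hits that failed the dose series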;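 also: actives suppress MT1-MMP promoter-driven transcription so potencies describe inhibitors; HT1080 fibrosarcoma cells; overnight exposure; toxic or luciferase-blocking compounds were not removed from the actives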
# Numbers without * were called inactive; i = inactive; nt = no result given.
SMILES | WNV protease inh | Hsc70 | MT1-MMP reporter
O=C(Nc1nc2ccc(Cl)cc2s1)c1ccc(Br)o1 | -0.95 | -7.6% | i
O=C(O)c1cc(Cl)ccc1NC(=O)C1CCCO1 (stereo unspecified) | 1.7 | 1.3% | i
O=C(O)C1CC=C(Cl)CC1C(=O)NCc1ccccc1 (stereo unspecified) | 0.19 | 2.2% | i
O=C(Nc1ccc(N2CCOCC2)cc1N1CCOCC1)c1ccco1 | 0.08 | -1.4% | i
CC(=O)Nc1ccc(NC(=O)CCC(=O)NCCO)cc1 | -0.32 | 2.3% | i
Cn1c(=O)c2cc(S(=O)(=O)NCCC(=O)NCCC3=CCCCC3)ccc2n(C)c1=O | 0.3 | 6.3% | i
CC(C#N)Sc1nc2ccccc2c(=O)n1-c1ccccc1 (stereo unspecified) | -0.89 | 5.7% | i
CC1CCCc2sc3nc(N4CCN(CCO)CC4)n4ncnc4c3c21 (stereo unspecified) | 0.83 | 0.1% | i
CC(C)=C(NC(=O)c1ccccc1)C(=O)N1CCOCC1 | -1.1 | 0.5% | i
CC(=O)Cc1nsc(NC(=O)c2ccc(-c3ccccc3Cl)o2)n1 | 0.46 | -9.7% | i
COc1cccc(OC)c1C(=O)Nc1cccc(C(C)=O)c1 | -0.66 | 3.0% | i
CC12CCC(C(=O)N3CCN(C(c4ccccc4)c4ccccc4)CC3)(OC1=O)C2(C)C (stereo unspecified) | nt | -7.3% | i
CCCCCn1c(Sc2ncccn2)nc2c1c(=O)[nH]c(=O)n2C | -0.31 | -0.2% | i
CSc1nsc(SC)c1C(=O)Nc1ccc(C)cc1 | nt | -2.1% | i
Cc1nc(SCC#N)c2c(C)c(C)sc2n1 | 0.49 | 6.1% | i
COC(=O)c1cc2occc2n1Cc1ccc(Cl)cc1 | nt | -0.8% | i
COCC(C)NC(=O)c1cc(-c2ccc(O)cc2)on1 (stereo unspecified) | 0.82 | 3.5% | i
O=C1CC(c2ccc(F)cc2)Cc2nc(N3CCN(c4ccccc4)CC3)ncc21 (stereo unspecified) | 0.36 | -2.2% | i
CCC(C(=O)Nc1cnccn1)c1ccccc1 (stereo unspecified) | -0.28 | 4.9% | i
COc1ccc(S(=O)(=O)N(C)CC(=O)NC2CC2)cc1 | -0.65 | -1.5% | i
NC(=O)c1oc2ccc(Cl)cc2c1NC(=O)CN1CCOCC1 | -0.55 | -3.1% | i
CC1C/C(=N\NC(=S)NC(C)C)CC(C)(C)C1 (stereo unspecified) | nt | -5.2% | i
O=C(Nc1ccc(S(=O)(=O)N2CCCCCC2)cc1)c1ccc(Br)o1 | -1.3 | 1.2% | i
O=c1[nH]cnc2nc(-c3ccccc3)c(-c3ccccc3)nc12 | 1.1 | 9.7% | i
COCCNC(=O)C(c1ccc(C)o1)N(C(=O)c1snc(C(N)=O)c1N)c1ccc(C)c(C)c1 (stereo unspecified) | 0.72 | -6.9% | i
COc1ccccc1-n1c(C)nnc1SCC(N)=O | -1.1 | -0.9% | i
CCCCCOC(=O)CSc1nnc(-c2cc(OC)c(OC)c(OC)c2)o1 | -0.21 | 3.9% | i
O=C(NC1CCCCC1)N(Cc1nc2ccccc2c(=O)[nH]1)C1CCCCC1 | 0.39 | -2.6% | i
CCC/C(O)=C1\C(=O)CC(C)(C)CC1=NCCO | -0.43 | 3.1% | i
O=C(Nc1ccc(N2CCN(C(=O)c3ccccc3)CC2)c(Cl)c1)c1ccco1 | 1.2 | 8.5% | i

# A stretch from further up, as a working copy:
SMILES | WNV protease inh | Hsc70 | MT1-MMP reporter
COC(=O)c1cc2occc2n1Cc1ccc(Cl)cc1 | nt | -0.8% | i
COCC(C)NC(=O)c1cc(-c2ccc(O)cc2)on1 (stereo unspecified) | 0.82 | 3.5% | i
O=C1CC(c2ccc(F)cc2)Cc2nc(N3CCN(c4ccccc4)CC3)ncc21 (stereo unspecified) | 0.36 | -2.2% | i
CCC(C(=O)Nc1cnccn1)c1ccccc1 (stereo unspecified) | -0.28 | 4.9% | i
COc1ccc(S(=O)(=O)N(C)CC(=O)NC2CC2)cc1 | -0.65 | -1.5% | i

# (listing goes on)
SMILES | WNV protease inh | Hsc70 | MT1-MMP reporter
c1csc(Cc2nn3c(-c4ccncc4)nnc3s2)c1 | -0.5 | 3.4% | i
CC1CCCN(C(=O)C2CCCN(S(=O)(=O)c3cccc4nsnc34)C2)C1 (stereo unspecified) | nt | 5.3% | i
O=C(Nc1ccc(Cl)cc1)c1ccsn1 | 0.49 | 3.2% | i
Cn1c(=O)n(Cc2ccccc2)c(=O)c2c1nc1n2CCCN1Cc1ccccc1 | -0.31 | 3.1% | i
Cn1c(-c2ccc(F)cc2)cnc1SCC(=O)NCc1ccco1 | 0.9 | 0.0% | i
COC(=O)c1ccc(C(=O)OC)c(NC(=O)COc2ccccc2OC)c1 | -0.8 | 1.8% | i
CCn1c(NCCc2ccc(OC)c(OC)c2)nc2c1c(=O)n(C)c(=O)n2C | 0.78 | -0.6% | i
CC(C)(C)C(=O)OCCn1c(=O)c2cc3c(=O)n(CCOC(=O)C(C)(C)C)c(=O)c3cc2c1=O | 0.04 | -3.0% | i
CCCCCCN1CC(O)=C(c2nc3ccccc3[nH]2)C1=N | 0.24 | -3.5% | i
O=C(C1CC1)N1CCc2cc(Br)cc(S(=O)(=O)NCc3ccc4c(c3)OCO4)c21 | -1.4 | 0.3% | i
Cc1ccc2[nH]c(=O)c(CN(Cc3ccco3)C(=O)c3ccncc3)cc2c1 | -0.06 | -3.6% | i
CC(=O)c1cccc(NC(=O)C2CCCCC2)c1 | -0.67 | -2.3% | i
CCn1c(NN)nc2sc3c(c2c1=O)CCC3 | nt | -4.7% | i
CCOCCn1c(CN2CCOCC2)nc2c1c(=O)[nH]c(=O)n2C | 0.84 | 2.5% | i
O=C(Nc1cccc2nsnc12)C1CC(=O)N(c2ccccc2)C1 (stereo unspecified) | 1.5 | -4.8% | i
CCCS(=O)(=O)N1CCN(c2ccccc2F)CC1 | 0.93 | 0.2% | i
Cc1[nH]c(=O)c(C#N)c2c1CSC(C)(C)C2 | nt | 2.7% | i
CC1CC(CC(C)C(=O)Nc2nncs2)C(=O)O1 (stereo unspecified) | nt | 1.6% | i
CCCc1nnc(NC(=O)Cn2c(=O)sc3ccccc32)s1 | -0.09 | -3.5% | i
COCCN(CCOC)S(=O)(=O)c1ccc(C(=O)Nc2nnc(C)o2)cc1 | 0.13 | 0.5% | i
COc1cc(NC(=O)c2ccccc2)c(OC)cc1Cl | nt | 0.4% | i
COc1cc(-n2c(=O)c3ccccc3n(Cc3cccnc3)c2=O)cc(OC)c1OC | -1.2 | -1.5% | i
COc1ccc(Cl)c(Cn2c(NCC(C)O)nc3c2c(=O)n(C)c(=O)n3C)c1 (stereo unspecified) | 1.3 | -9.8% | i
Cc1cccc(N2CCN(C(=O)C(C)C)CC2)c1C | nt | 0.7% | i
COc1cc(S(=O)(=O)N2CCC(N3CCCCC3)CC2)ccc1-n1cnnn1 | 0.04 | -0.3% | i
CC(C)OC(=O)CSc1nnc(CNc2cccc(Cl)c2)n1C | nt | -8.1% | i
Cc1ccc(C)c(N2CCN(C(=O)CCc3nc4ccccc4[nH]3)CC2)c1 | 0.4 | 4.1% | i
C=CCc1ccccc1OCC(O)CN1CCN(C(=O)OCC)CC1 (stereo unspecified) | -0.64 | -6.0% | i
CCOCC(=O)Nc1nnc(COCC)s1 | 0.29 | 2.0% | i
COC(=O)C1=C2SC(C)C(=O)N2C(N)=C(C#N)C1c1ccc(OC)c(OC)c1 (stereo unspecified) | -0.92 | 3.8% | i

# (more compounds)
# The line under a structure holds: WNV protease inh, Hsc70, MT1-MMP reporter
Oc1ccc(Cl)cc1-c1cc(-c2ccco2)[nH]n1
 : nt, 5.5%, i
CC(NC(=O)c1ccc(Br)s1)C1CCCO1 (stereo unspecified)
 : nt, 6.1%, i
CCOc1ccc(-c2nnn(CC(=O)N3CCN(c4ccc(F)cc4)CC3)n2)cc1OCC
 : 1.7, 1.2%, i
CCN=C1SC(C(=O)Nc2cccc(OCC)c2)CC(=O)N1CC (stereo unspecified)
 : 0.54, 5.1%, i
Cc1cc(=O)[nH]c2n[nH]c(-c3ccccc3)c12
 : -0.49, 0.3%, i
COc1cc(C(=O)Nc2c(C)cc(C)cc2C)c(-n2cnnn2)cc1OC
 : 1.6, 3.1%, i
Cc1cc(OCC(=O)O)c2ccccc2n1
 : 0.05, -2.7%, i
COc1ccc2nc(N3CCC(O)CC3)c(C#N)cc2c1
 : -0.4, 21%, i
CCc1nnc(NC(=O)Cn2nnc(-c3ccccc3F)n2)s1
 : 1.8, -2.9%, i
O=S(=O)(c1cccs1)N1CCC(Cc2ccccc2)CC1
 : 1, 1.8%, i
CCOc1ccc(C2=Nn3c(nnc3-c3cccnc3)SC2)cc1
 : -0.33, -2.4%, i
CCCC(=O)Nc1ccc(C(=O)n2nnc3ccccc32)cc1
 : -0.12, -1.3%, i
CC(C)CN(C(=O)COC(=O)c1ccc2c(c1)NC(=O)CS2)C1CCS(=O)(=O)C1 (stereo unspecified)
 : -0.78, 1.5%, i
Cc1cc(C)n(CCOC(=O)c2sc3ccccc3c2Cl)n1
 : 0.56, 0.9%, i
COC(=O)c1ccccc1NC(=O)c1ccc(-c2ccc(Br)cc2)o1
 : nt, 1.6%, i
CC(C)NS(=O)(=O)c1ccc(CCC(=O)Nc2ccc3c(c2)OCO3)cc1
 : nt, 3.8%, i
CC(=O)Nc1ccc2oc(-c3cc(F)c(F)cc3Cl)nc2c1
 : -0.59, 2.8%, 3.5µM*
CCOc1ccccc1N1CCN(Cc2ccc(OC)c(OC)c2)CC1
 : -0.5, -9.5%, i
COc1ccccc1CNC(=O)CNC(=O)Cn1cnc2ccccc2c1=O
 : 0.67, -7.1%, i
CCc1nnc(NC(=O)CSc2nnc(COc3ccccc3C)o2)s1
 : 0.71, -0.7%, i
CCOc1ccc(S(=O)(=O)N2CCC(C(N)=O)CC2)c2ccccc12
 : -1.4, -2.8%, i
Cc1cccc(N2CC(=O)N(c3cccc(C)c3)CC2=O)c1
 : 1.5, -2.9%, i
c1ccc2c(-c3nnc(SCc4cn5ccccc5n4)o3)c[nH]c2c1
 : nt, 2.6%, i
O=C(Nc1ccccc1C(=O)O)c1ccc(Cl)c(S(=O)(=O)N2CCOCC2)c1
 : 0.24, 2.0%, i
COC(=O)c1ccccc1NC(=O)CN(CCc1ccccc1)S(C)(=O)=O
 : 0.83, 3.8%, i
Cc1ccc2nc3c(cc(C#N)c(=N)n3CCCN3CCOCC3)c(=O)n2c1
 : nt, 3.4%, i
O=C1c2ccccc2-c2c1cccc2C(=O)N1CCOCC1
 : nt, 0.5%, i
COc1ccccc1N1CCN(C(=O)Nc2cccc(Cl)c2)CC1
 : nt, 2.5%, i
CCCNc1nc2c(c(=O)[nH]c(=O)n2C)n1Cc1cccc(Br)c1
 : 2.2, 0.8%, i
CN(C)S(=O)(=O)c1ccc(C(=O)Nc2ccccc2C(=O)O)cc1
 : -1.1, 2.9%, i
Cc1nc(Nc2ccc(S(N)(=O)=O)cc2)oc1C
 : -0.03, -4.3%, i
O=C(CCNS(=O)(=O)c1cccc2nonc12)NCCc1ccc(Cl)cc1
 : 0.38, -3.3%, i
COCc1nc2sc(C)c(C)c2c(=O)[nH]1
 : nt, -1.6%, i
c1ccc(-c2nnc(N3CCN(c4ccccn4)CC3)c3ccccc23)cc1
 : -1.3, -3.3%, i
COC(=O)c1ccccc1NC(=O)c1noc2c1CCC2
 : -0.09, 5.6%, i
CC1(C)Cc2c(C#N)c(N)n(-c3ccccc3)c(=O)c2CO1
 : -0.76, -2.6%, i
CCOC(=O)Cc1c(C)c2c(C)[nH]nc2oc1=O
 : 0.12, -4.5%, i
CCC(C)(C)NC(=O)CN(C(=O)c1snc(C(N)=O)c1N)c1ccc2c(c1)OCCO2
 : -0.91, 4.1%, i
CN(C(=O)c1ccc(Cl)cc1)C1=CCCCC1CCC#N (stereo unspecified)
 : -0.25, -2.7%, i
COCCCNC(=O)C1CCC(=O)N1Cc1ccccc1Cl (stereo unspecified)
 : -0.46, -2.3%, i
CCCN(CCC)C(=O)CC(c1ccccc1)c1cc(Br)ccc1O (stereo unspecified)
 : nt, -2.3%, i
O=C(C1CCCN(S(=O)(=O)c2ccc(Cl)cc2)C1)N(Cc1cccs1)C1CC1 (stereo unspecified)
 : -0.67, 1.4%, i
CC(C)(C)NC(=O)CSC(=Nc1ccccc1F)NC#N
 : nt, 1.5%, i
N#CCSc1nnc(COc2cccc3ccccc23)n1-c1ccccc1
 : -0.18, 2.5%, i
Cn1c(-c2ccc(N)cc2)nc2ccccc21
 : 0.65, 1.8%, i
O=C(NCc1cccnc1)c1ccccn1
 : -0.96, 1.8%, i
COc1ccc(OC)c(CCNC(=O)CS(=O)(=O)Cc2nc(-c3ccc(C)cc3)oc2C)c1
 : 1.8, 0.5%, i
O=C(CSc1ncn(-c2ccccc2)n1)Nc1nccs1
 : nt, -4.3%, i
O=C(CN(C(=O)CCNC(=O)c1ccco1)c1ccccc1)NC1CCCC1
 : 1, 5.1%, i
COc1ccc(Cl)cc1NC(=O)CSc1nnc(Cn2c(=O)sc3ccccc32)n1C
 : -0.42, -2.9%, i
C(=C\c1ccccc1)/C=N/n1cnnc1
 : -1.3, -6.4%, i
CCNC(=O)CC(=O)Nc1ccccc1C(=O)O
 : -0.37, 1.1%, i
COC(=O)c1cc(Br)c(=O)n(Cc2ccc3c(c2)OCO3)c1
 : -0.01, -9.7%, i
COc1nc(NS(=O)(=O)c2ccc(C)cc2)nc(C)c1Cl
 : 0.03, 2.8%, i

# An excerpt, so the mix of outcomes need not match the whole.
